Assay outcomes from PubChem BioAssay.
GLA inh pH 4.5 – qHTS Assay for Inhibitors of Human alpha-Galactosidase at pH 4.5; AID 1467, 2008; 230,000 tested, under 10 active; purified enzyme, 4-MU-alpha-Gal fluorescence, pH 4.5; activity change, negative = inhibition, % at 105 µM; Alpha-galactosidase A (Homo sapiens), P06280; inconclusive = small, poorly fitted or top-dose-only inhibition, or a rising curve; inactive = flat fitted curve, though single readings scatter; no compound was filed as active;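 note: 0% = full activity with enzyme and -100% = basal without enzyme; dose as in the result columns while the protocol names 77 µM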
Target sequence (P06280 whole entry, looked up): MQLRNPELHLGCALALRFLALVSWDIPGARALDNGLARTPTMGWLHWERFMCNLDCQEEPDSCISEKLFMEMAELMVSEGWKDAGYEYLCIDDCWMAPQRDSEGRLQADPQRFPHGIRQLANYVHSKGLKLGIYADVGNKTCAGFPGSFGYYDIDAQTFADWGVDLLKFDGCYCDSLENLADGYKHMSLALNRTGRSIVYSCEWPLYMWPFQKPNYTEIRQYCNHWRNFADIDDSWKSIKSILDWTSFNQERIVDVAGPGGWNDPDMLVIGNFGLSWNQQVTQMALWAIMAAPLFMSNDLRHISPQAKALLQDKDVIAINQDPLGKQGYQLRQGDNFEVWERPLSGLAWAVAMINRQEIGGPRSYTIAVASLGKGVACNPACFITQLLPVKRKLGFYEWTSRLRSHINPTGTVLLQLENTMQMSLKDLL
Rango-impB inh – qHTS Assay for Inhibitors of Rango (Ran-regulated importin-beta cargo) - Importin beta complex formation. AID 540263, 2011. 340,000 compounds, 0.031% hits. Importin subunit beta-1 (Homo sapiens), Q14974. Potency, µM (series often up to 92.2 µM), without a hit: top-dose inhibition of complex formation. Rango CFP/YFP FRET sensor + importin beta, 45 min; active = rising FRET ratio curve, often small or poorly fitted; inconclusive = mostly compound fluorescence or quenching in the first reads; inactive = flat curves in all reads;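 note: potency is the fitted concentration of half-maximal effect; 0% = DMSO wells and 100% = buffer wells lacking importin beta; nearly all actives have a fitted effect of over 15% in size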
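FRET biosensor Rango (snurportin 1 IBB between N-terminal EYFP and C-terminal Cerulean), 50 nM in PBS/1 mM DTT/0.02% Tween-20/0.1% BSA, preincubated 5 min RT with compound; 0.125 microM importin beta added, 45 min RT, CFP/YFP FRET ratio read.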
Rango release inh – qHTS Assay for Inhibitors of RanGTP induced Rango (Ran-regulated importin-beta cargo) - Importin beta complex dissociation; Biochemical FRET Rango-importin beta, RanGTP-induced dissociation; AID 540253, 2011; Potency, µM (series often up to 46.1 µM), without a hit: at the highest dose activity change, negative = inhibition; 340,000 compounds, 0.071% hits; Snurportin-1 (Homo sapiens) + GTP-binding nuclear protein Ran (Homo sapiens) + Importin …; active means falling FRET ratio curve, often poorly fitted, with flat reads before Ran was added; inconclusive means other falling curves, or compound fluorescence or quenching; inactive means flat or rising ratio curve;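 note: potency is the fitted concentration of half-maximal effect; % of control where 0% means no effect; nearly all actives have a fitted effect of over 45% in size; -100% = wells without RanGTP and RCC1; the record marks most hits as doubtful in a second field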
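Compounds preincubate 5 min with complex of recombinant Rango and importin beta in PBS with 1 mM DTT. Ran (0.6 uM) loaded with 2 mM GTP plus 0.2 uM RCC1 starts dissociation; FRET is recorded 45 min later.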
miR-21 reporter – qHTS Assay for Modulators of miRNAs and/orActivators of miR-21; HeLa miR-21 FLuc reporter, luciferase, 48 h; Potency, µM (doses to about 38.3 µM), for inactives: at the highest dose reporter change, positive = more light; 340,000 tested, under 10 active; AID 2288, 2010; active = well fitted rising curve with a large enough effect; inconclusive = small, poorly fitted or top-dose-only effect; inactive = no such curve, though single readings can be large or run the other way;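 note: % of control where 0% means no effect; miR-21 action dims this reporter so a rising signal means less miR-21 action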
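HeLa cells stably expressing CMV-driven firefly luciferase with a downstream miR-21 binding sequence, endogenously expressing miR-21, were treated with titrations (up to about 40uM final) for 48 hours at 37 degree Celsius. Luciferase luminescence was read after lysis.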
An asterisk follows results filed as active; ? = inconclusive; . = not tested or not shown; & = joins results of further samples. An excerpt; the hit share may differ from the screen's.

GLA inh pH 4.5 | SMILES | Rango-impB inh | Rango release inh | miR-21 reporter
. | O=C(Cc1cccc(NC(=O)C2CCCN(C(=O)C3CCCCC3)C2)c1)Nc1cccc(C(=O)N2CCOCC2)c1 (stereo not given) | -3.0% | 4% | .
. | CSc1ccccc1OCc1cc(C(=O)NCCc2ccco2)no1 | -2.1% | -13% | -42%
-7 | CS(=O)(=O)N1CCN(c2ccc(NC(=S)NC(=O)c3ccccc3[N+](=O)[O-])cc2)CC1 | 0.0% | 0% | -2%
0 | Cc1ccc(S(=O)(=O)N2CC3(C)CN(S(=O)(=O)c4ccc(C)cc4)CC(C)(C2)C3O)cc1 (stereo not given) | -0.7% | 5% | -8%
0 | O=C(/C=C/c1ccco1)NCCCN1CCOCC1 | -6.7% | -2% | -2%
. | Cc1ccc(C)c(N2CCN(CCCc3ccccc3)CC2)c1 | 1.2% | -3% | 9%
2 | CCC(=O)N/N=C(\C)CC(=O)Nc1ccc2ccccc2c1 | -0.1% | 19% | -15%
. | O=C(COc1ccc(F)cc1Cl)Nc1ccccc1C(=O)N1CCCCC1 | 1.7% | 18% | .
-9 | O=[N+]([O-])c1ccc2c(c1Nc1ccccc1)=NC1(CCCCC1)N=2 | 0.6% | -11% | -4%
. | O=C(c1cc(COc2ccc(F)cc2Cl)on1)N1CC2C[C@@H]3CC1C[C@H](C2)C3 | -4.9% | 14% | -47%
-5 | CC1=CC(C)(C)N(C(=O)C(C)N2C(=O)c3ccccc3C2=O)c2ccc(C)cc21 (stereo not given) | 5.8% | 18% | 7%
-2 | O=C(N/C(=C/c1cccs1)C(=O)N1CCOCC1)c1cccs1 | -0.5% | 10% | 1%
. | CCn1c(SCC(=O)Nc2ccc(F)cc2F)nc2c(c1=O)SCC2 | -1.9% | -7% | -2%
4 | COc1ccc(N2CCN(C(=O)Cc3coc4cc(C)ccc34)CC2)cc1 | 1.7% | 5% | 4%
6 | Cc1ccc(C)c(S(=O)(=O)N=Nc2c(O)[nH]c3ccccc23)c1 | -3.5% | -15% | -4%
-1 | CN(C(=O)COc1ccc(Cl)cc1)c1nnc(C23CC4CC(CC(C4)C2)C3)s1 | . | . | -3%
. | CSc1nc2[nH]c(=O)n(O)c(=O)c2n1Cc1ccccc1 | -2.9% | -8% | .
1 | COCCn1c(SCC(=O)c2ccccc2)nc2c(c1=O)SCC2 | -0.2% | -17% | 4%
6 | O=C(N/N=C/c1ccc([N+](=O)[O-])s1)c1ccccc1Br | -3.8% | -3% | ?
. | NC(=O)CC(NC(=O)Cc1cccc2ccccc12)c1ccc(N2CCCCCC2)c([N+](=O)[O-])c1 (stereo not given) | -2.8% | 26% | -7%
4 | CC(C)OC(=O)c1ccc(COC(=O)c2cccc(-c3nnc(-c4ccccc4)o3)c2)cc1 | ? | -3% | -25%
. | COc1ccc(CNc2nc(NC(C)=O)nn2-c2ccccc2)cc1 | -0.1% | -12% | -3%
. | O=C(COC(=O)Cc1c(F)cccc1Cl)NC1CCS(=O)(=O)C1 (stereo not given) | 8.8% | 5% | .
. | O=C(NCc1ccccc1)C(c1ccncc1)N(C(=O)c1csnn1)c1ccccc1F (stereo not given) | -1.2% | 1% | 0%
. | COc1ccc(N2CCN(C(=O)c3oc4ccccc4c3NC(=O)CCc3cc(OC)no3)CC2)cc1 | -0.4% | -9% | 5%
5 | COc1cc(NC(=S)Nc2cccc(C)n2)cc(OC)c1OC | 7.2% | -1% | 1%
-17 | CCN(CC(=O)Nc1cccc(S(N)(=O)=O)c1)Cc1nc2ccccc2c(=O)[nH]1 | ? | ? | 6%
-13 | CCOc1ccccc1NC(=O)Cc1ccccc1OC | 2.9% | 11% | -9%
2 | CCCc1nn(C)c2c(=O)[nH]c(-c3ccccc3OCC)nc12 | 2.2% | -4% | -5%
9 | Oc1c(Br)cc(Br)cc1CNc1ccc(F)cc1 | ? | -10% | -8%
5 | CCOC(=O)Cc1csc(NC(=O)CSc2nc(C)cc(=O)[nH]2)n1 | -3.6% | -12% | 1%
-10 | NC(=O)c1cccnc1Nc1ccccc1F | 3.5% | -1% | -41%
4 | O=C(Cn1ncc2c(=O)oc3ccccc3c21)NC1CC1 | 3.6% | 18% | -4%
. | CC(=O)c1c(C)[nH]c(C(=O)Nc2cccc(C)c2C)c1C | 2.2% | 19% | -8%
. | C=CCNc1nc2c(c(=O)[nH]c(=O)n2C)n1CCCc1ccccc1 | -0.9% | -10% | -7%
10 | CCCCNC(=O)C1CCCN(S(=O)(=O)c2ccc(S(=O)(=O)NCC(C)C)cc2)C1 (stereo not given) | 3.3% | 4% | 2%
. | NC(=O)C1CCCN(CC(=O)Nc2ccccc2C(=O)NC2CC2)C1 (stereo not given) | -3.0% | 12% | .
. | Cc1cc(NC(=O)C(C)Oc2ccccc2)no1 (stereo not given) | 1.4% | -18% | -6%
1 | COc1ccc(/C(C)=N/NS(=O)(=O)c2ccccc2)c(OC)c1 | -1.3% | 18% | -13%
4 | Cc1ccc(-c2nn3c(C)nnc3s2)cc1NC(=O)CSc1ccc(Cl)cc1 | -2.6% | 1% | -6%
8 | CCOc1cc(C#N)c(NC(=O)c2cccnc2Cl)cc1OCC | ? | -4% | -6%
. | CN1CCC(=O)N([C@H](CC#N)c2ccccc2)CC1 | 0.1% | -12% | -1%
1 | O=C(NNC(=O)c1ccc2c(c1)OCO2)NC12CC3CC(CC(C3)C1)C2 | 3.5% | -4% | -18%
. | CSc1ccc(C(c2c(C(=O)O)[nH]c3ccccc23)c2c(C(=O)O)[nH]c3ccccc23)cc1 | ? | -14% | -2%
2 | CCOC(=O)c1c(-c2ccc(OCC)cc2)csc1NC(=O)CCN1C(=O)c2ccccc2C1=O | . | . | -1%
0 | Cc1nc2cc(-c3ccsc3-n3c(C)ccc3C)[nH]n2c(=O)c1Cl | ? | -29% | 2%
. | Cc1nc2nc(C)c(NS(=O)(=O)c3ccc(CC(C)C)cc3)c(=O)n2[nH]1 | 5.1% | 1% | 1%&2%
. | CC(C)Oc1ccc(C(=O)N2CCN(C(=O)c3ccco3)CC2)cc1 | -0.1% | -6% | 0%
. | COc1ccc(CNCCCSc2ncccn2)c(OC)c1 | -0.1% | 8% | -3%
. | CCOc1cccc(/C=N/N2CCN(c3ccc(Cl)cc3)CC2)c1O | -0.2% | -5% | -3%
-6 | CCOC(=O)c1ccc(-c2nnc(-c3ccc(Cl)cc3Cl)o2)cc1 | -0.6% | 1% | -13%
-6 | CCCn1c(CCc2ccccc2)nnc1SCC(=O)N1CCCC1 | -1.0% | 2% | -5%
. | COC(=O)[C@@H](Cc1ccccc1)NC(=O)NCCc1c[nH]c2ccccc12 | -4.8% | -4% | 0%
9 | COC(=O)C1CCN(C(=O)/C=C/c2ccc(OC)cc2)CC1 | -3.0% | -11% | -11%
1 | COc1cccc(NC(=O)CNS(=O)(=O)c2ccc3nc(C)sc3c2)c1 | -0.6% | -3% | -8%
. | CN(Cc1cc([N+](=O)[O-])ccc1Cl)C(=O)C[n+]1ccccc1 | 3.0% | -12% | 0%

Next results:
GLA inh pH 4.5 | SMILES | Rango-impB inh | Rango release inh | miR-21 reporter
. | CN(Cc1cnccn1)C(=O)c1cc(COc2cccc(C(F)(F)F)c2)on1 | -0.8% | 4% | -30%
. | CCOC(=O)N1CCC(N2C(=O)c3ccc(C(=O)Nc4ccc(OC)c(OC)c4)cc3C2=O)CC1 | -0.6% | -12% | -2%
1 | Cc1ccc(-c2nc(Cl)nc3ccccc23)cc1 | -4.1% | -10% | -2%
3 | O=S(=O)(Nn1cnnc1)c1ccc2ccccc2c1 | 0.0% | 3% | -2%
. | COc1ccc(C(=O)N2CCN(Cc3cc(OC)ccc3OC)CC2)cc1 | 0.6% | 15% | -4%
-9 | Cc1cc(Nc2ccccc2)n(C(=O)c2ccc(Cl)cc2)n1 | -2.7% | -10% | -13%
-25 | Cc1ccc(S(=O)(=O)n2nnc3ccccc32)c(C)c1C | 0.4% | 2% | -1%
4 | O=C(c1ccc(CN2CCc3ccccc3C2)cc1)N1CCCCC1 | -2.0% | 18% | -8%
3 | N/C(=N\OC(=O)c1ccccc1)c1cccnc1 | 0.4% | 2% | -60%
. | CC(=O)N=C1C=CC(=CN(O)C(C)(C)Cc2ccccc2)C=C1 | 2.1% | 8% | .
. | O=C(COC(=O)CNC(=O)c1ccccc1F)Nc1ncc(Cl)cc1Cl | -1.4% | ? | .
-8 | COc1ccc(C2c3ccc4ccccc4c3Oc3ncn(CCCO)c(=N)c32)cc1OC (stereo not given) | 6.6% | -6% | 12%
-16 | O=C(NCc1cccs1)c1cc2ccccc2o1 | -0.8% | 0% | -35%
2 | COc1ccc(C(=O)Nc2cc3c(cc2C#N)OCO3)cc1S(=O)(=O)NCc1ccco1 | 2.1% | -17% | -3%
1 | COc1ccc(C2CN=NC23CCCc2ccccc2C3=O)cc1 (stereo not given) | -1.2% | -9% | 10%
3 | CC1=C(C(=O)c2ccccc2)C(c2cn(-c3ccccc3)nc2-c2ccc(Cl)cc2)NC(=S)N1 (stereo not given) | ? | 1% | 0%

A draw from above in order of SMILES length, rising.
GLA inh pH 4.5 | SMILES | Rango-impB inh | Rango release inh | miR-21 reporter
-16 | O=C(NCc1cccs1)c1cc2ccccc2o1 | -0.8% | 0% | -35%
3 | N/C(=N\OC(=O)c1ccccc1)c1cccnc1 | 0.4% | 2% | -60%
-25 | Cc1ccc(S(=O)(=O)n2nnc3ccccc32)c(C)c1C | 0.4% | 2% | -1%
4 | O=C(c1ccc(CN2CCc3ccccc3C2)cc1)N1CCCCC1 | -2.0% | 18% | -8%
. | CC(=O)N=C1C=CC(=CN(O)C(C)(C)Cc2ccccc2)C=C1 | 2.1% | 8% | .
. | O=C(COC(=O)CNC(=O)c1ccccc1F)Nc1ncc(Cl)cc1Cl | -1.4% | ? | .
3 | CC1=C(C(=O)c2ccccc2)C(c2cn(-c3ccccc3)nc2-c2ccc(Cl)cc2)NC(=S)N1 (stereo not given) | ? | 1% | 0%

Remaining list, next part.
GLA inh pH 4.5 | SMILES | Rango-impB inh | Rango release inh | miR-21 reporter
. | CCCc1cc(=O)oc2cc(C)cc(OC(C)C(=O)NCC(O)c3ccccc3)c12 (stereo not given) | -1.0% | 12% | -8%
. | CCOC(=O)[C@@H]1[C@H]2COc3cc(OC)ccc3[C@@H]2N2C(=O)N(c3ccc(Cl)cc3)C(=O)[C@@]12C | 2.5% | 12% | -12%
4 | COc1ccc(NS(=O)(=O)c2ccc(NS(=O)(=O)c3ccc(C)cc3)cc2)nn1 | -0.6% | 14% | -4%
-17 | CC12CCC(C/C1=N/OC(=O)c1cccc([N+](=O)[O-])c1)C2(C)C (stereo not given) | 0.1% | -9% | 2%
6 | Cc1ccc(F)c(NC(=O)c2ccc(Cn3cc(Cl)cn3)cc2)c1 | -0.1% | -5% | -26%
3 | COc1ccc(C(=O)C[n+]2ccc3c(c2)nc(-c2cc(OC)c(OC)cc2OC)n3C)cc1 | -0.7% | -11% | -3%
2 | O=C(NCCN1CCCCC1)Nc1ccccc1 | -5.7% | -4% | -10%
4 | CCCCc1ccc(NC(=O)N[C@@H](CC(C)C)C(=O)O)cc1 | 1.7% | 6% | -7%
-1 | CCN(CC)c1ccc(/C=C2\SC(=O)N(C(C)C)C2=O)o1 | ? | ? | ?
-6 | CCN(CC)S(=O)(=O)c1cccc(NC(=O)c2cc(=O)[nH]c3ccccc23)c1 | -6.7% | -6% | -3%
. | COc1ccccc1NC(=O)c1cc2cc(Br)ccc2oc1=N | 0.8% | -4% | -8%
0 | CC1=CC(C)(C)Nc2ccc(OC(=O)CN3C(=O)C4CCCCC4C3=O)cc21 (stereo not given) | -4.4% | 7% | ?
-10 | COC(=O)c1ccc(/C=N/Nc2nc(-c3ccccc3)cs2)cc1 | ? | -5% | -8%
